# High-throughput results from PubChem.
# Vaccinia Venus – inhibitors of vaccinia virus (Venus reporter); Potency, µM (highest dose often 36.5 µM), for the others: at the top dose activity change, negative = inhibition, most hits filed as inhibitors; Vaccinia virus Venus reporter expression, fluorescence; 330,000 tested, 0.46% active; AID 720580; active means well fitted inhibition curve with a large enough effect; inconclusive means small, poorly fitted or top-dose-only effect; inactive means no such curve, though single readings can be large or run the other way; tested in A549 cells; further: nearly all actives have a fitted effect of over 30% in size; inactives centre near -10
# VACV mCherry inh – inhibitors of vaccinia virus infection (mCherry reporter signal) | Vaccinia virus mCherry reporter infection, fluorescence; about a quarter of the inactives have no number | Potency, µM (highest dose often 36.5 µM), for inactives: at the top dose activity change, negative = inhibition, hits mostly inhibitors | 310,000 tested, 0.63% active | AID 720579; active = well fitted inhibition curve with a large enough effect; inconclusive = small, poorly fitted or top-dose-only effect; inactive = no such curve, though single readings can be large or run the other way; tested in A549 cells; further: nearly all actives have a fitted effect of over 35% in size; inactives centre near -10
# * hit, by the source's call; i = inactive; ? = inconclusive; · = no result given; [ ] = another dose, or the depositor's remark. On the % scale 0 is the no-effect control and ±100 the full control effect; potency means the concentration at half of the fitted maximal effect. Compounds were not picked by outcome, and some 0.82% of all compounds hit somewhere here.
# Fields: Vaccinia Venus	VACV mCherry inh
> Cc1ccc(C(=O)NC2CCN(CC(=O)Nc3c(C)cc(C)cc3C)CC2)cc1
    -21%	-6%
> Cc1cc(=O)oc2c(C)c(OCC(=O)NC3CCN(Cc4ccccc4)CC3)ccc12
    -4%	-7%
> O=C(COc1ccccc1F)Nc1ccc2c(c1)OCCO2
    -15%	-28%
> Cc1cc(C)nc(NC(=O)COc2cc(Cl)cc(Cl)c2)n1
    -13%	-14%
> COc1ccc(OC)c(NC(=O)COC(=O)CCc2ccc(S(=O)(=O)N3CCOCC3)cc2)c1
    -11%	-2%
> CCOC(=O)c1c(NC(=O)COC(=O)c2nc(Cl)ccc2Cl)sc(C(=O)NC)c1C
    -1%	-14%
> COc1cccc(NC(=O)CCN2CCN(CCO)CC2)c1
    -3%	-9%
> C/C(=N/NC(=O)c1ccc(C)nc1)c1ccc2c(c1)CCCC2
    -21%	-3%
> Cc1ccc(C2=CSC3=NCCN23)c(C)c1
    -8%	·
> CCN(CC)S(=O)(=O)c1ccc2c(c1)N(CC(=O)N1CCN(c3ccc(F)cc3)CC1)C(=O)CO2
    -8%	i

# Continuation:
# Fields: Vaccinia Venus	VACV mCherry inh
> CCC(=O)NC(O)C(=O)c1ccc(C)cc1 (centres undefined)
    -5%	-12%
> CC(C)(C)OC(=O)N1CCc2onc(-c3ccccc3[N+](=O)[O-])c2C1=O
    14%	-9%
> Cc1ccc(C(=O)NC(C)c2ccncc2)o1 (centres undefined)
    0%	i
> CCOC(=O)[C@H]1[C@H]2COc3ccc(C)cc3[C@@H]2N2C(=O)c3ccccc3NC(=O)[C@@]12C
    -11%	-4%
> O=C1CC(c2ccccc2)CC(O)=C1C=NCC1CCCO1 (centres undefined)
    -13%	·
> O=C(CNC(=O)c1ccccc1)OCc1nnc(-c2ccc(Cl)cc2)o1
    -9%	-16%
> COc1ccc(CCN2CC(C(=O)NCc3nc4ccccc4n3C)CCC2=O)cc1 (centres undefined)
    -20%	-14%
> CC1(C(=O)NS(C)(=O)=O)CCN1C(=O)CC(c1ccccc1)c1ccccc1 (centres undefined)
    5%	47%[activator]
> Cc1cccc(COC[C@H](Cc2ccccc2)N2CCN(C(=O)c3cccc(Cl)c3)CCC2=O)c1
    -11%	-11%
> COc1ccc(C(=O)COC(=O)c2c(C)noc2C)cc1Cl
    -4%	-8%

# Continued.
# Fields: Vaccinia Venus	VACV mCherry inh
> CSc1ccc(CNCc2ccco2)cc1
    -1%	-11%
> CC(C)Oc1ccc(F)cc1-c1cc(C(=O)NCc2cccs2)[nH]n1
    -23%	-9%
> O=[N+]([O-])c1cccnc1Sc1ccc(Cl)cc1
    -6%	-22%
> Cc1nnsc1C(=O)Nc1ccc(Cl)cc1Cl
    -18%	-24%
> CCCC(c1nnnn1C(C)(C)C)N1CCN(Cc2ccccc2)CC1 (centres undefined)
    7%	-4%
> COc1cc(NC(=O)Cn2c(=O)n(-c3cccc(C)c3)c(=O)c3c(C)c(C)sc32)cc(OC)c1
    -14%	i
> COc1cccc2sc(N(Cc3cccnc3)C(=O)c3ccc(S(=O)(=O)N(C)C)cc3)nc12
    -8%	i
> O=C(O)COc1ccccc1/C=C1\SC(=S)N(/N=C/c2ccccc2O)C1=O
    -15%	-18%
> CCCCN(C(=O)CCC(=O)Nc1cc(C)on1)C(C(=O)NC1CCCC1)c1ccc(OCC)cc1 (centres undefined)
    -29%	?
> Nc1ccc(CC(N)c2csc(Nc3ncccn3)n2)cc1 (centres undefined)
    ?	?

# Other results follow:
# Fields: Vaccinia Venus	VACV mCherry inh
> O=P(Cc1cc(Br)cc(Br)c1OCCO)(c1ccccc1)c1ccccc1
    -11%	i
> CC(C)CC1CCCCC1OC(=O)C[N+]1(C)CCCCC1 (centres undefined)
    -1%	-11%
> COc1ccc(/C=N/OCC(=O)N=Nc2c(O)[nH]c3ccc(Br)cc23)cc1OC
    -12%	-17%
> Cc1[nH]c2ccccc2c1-c1ccc(Cl)nn1
    -7%	3%
> CCN1CCN(C(=O)Cn2nc(C)c3sc4ccccc4c3c2=O)CC1
    -11%	i
> CCN1CCN(c2ncc(C(=O)Nc3ccccc3C(=O)OC)c3ccccc23)CC1
    -27%	?
> COc1ccc([C@@H]2[C@@H]3C(=O)N(C(C)(C)C)C(=O)[C@@H]3[C@]3(Cc4ccc(Cl)cc4)C(=O)N(c4cccc(F)c4)C(=O)N23)cc1
    -20%	-15%
> N#Cc1cn(CCCOc2ccccc2)c2ccccc12
    -24%	·
> CCOC(=O)c1c(NC(C)=O)sc(C(=O)NC2CCCC2)c1C
    6%	24%
> CCc1ccccc1NC(=O)C1CCN(S(=O)(=O)c2ccc(N3CCCC3=O)cc2)CC1
    -6%	-11%

# By substructure, the entries above containing a tert-butyl group
# Fields: Vaccinia Venus	VACV mCherry inh
> CC(C)(C)OC(=O)N1CCc2onc(-c3ccccc3[N+](=O)[O-])c2C1=O
    14%	-9%
> CCCC(c1nnnn1C(C)(C)C)N1CCN(Cc2ccccc2)CC1 (centres undefined)
    7%	-4%
> COc1ccc([C@@H]2[C@@H]3C(=O)N(C(C)(C)C)C(=O)[C@@H]3[C@]3(Cc4ccc(Cl)cc4)C(=O)N(c4cccc(F)c4)C(=O)N23)cc1
    -20%	-15%

# (next part)
# Fields: Vaccinia Venus	VACV mCherry inh
> Cc1ccc2nc3c(c(C(=O)OC4CCOC4=O)c2c1)CCCC3 (centres undefined)
    -13%	i
> CC1CCCC(C)N1C(=O)COc1ccccc1F (centres undefined)
    -6%	-15%
> Cc1oc(-c2ccccc2)nc1C(=O)N1CCN(c2ccc(F)cc2)CC1
    -12%	-8%
> COc1ccc(-c2cc(C(F)(F)F)nc(SCC(N)=O)n2)cc1
    -19%	-11%
> COc1cc(/C=N/NC(=O)c2ccncc2)ccc1OCC(=O)Nc1cccc([N+](=O)[O-])c1
    -16%	i
> CCOC(=O)N1CCc2c(sc(NCc3cccs3)c2C(=O)Nc2ccc(OC)cc2OC)C1
    -9%	-13%
> O=c1cc(CSc2n[nH]c(-c3ccncc3)n2)nc2sccn12
    -17%	i
> Cc1cc(C)cc(NC(=S)N(CCN(C)C)Cc2cccs2)c1
    -6%	-11%
> Cc1ccc2c(CNCCc3ccc(Cl)cc3)c(C(=O)O)n(Cc3ccc(F)cc3)c2c1
    -15%	-13%
> CCSc1ncc(C#N)c(=O)[nH]1
    2%	·

# One compound at a time, from the list above. Order of screens: Vaccinia Venus, VACV mCherry inh
# CCN(CC)S(=O)(=O)c1ccc2c(c1)N(CC(=O)N1CCN(c3ccc(F)cc3)CC1)C(=O)CO2 as listed: -8%, i
# Cc1ccc2c(CNCCc3ccc(Cl)cc3)c(C(=O)O)n(Cc3ccc(F)cc3)c2c1 as listed: -15%, -13%

# (next part)
# Fields: Vaccinia Venus	VACV mCherry inh
> O=C(CN1C(=O)CCSc2ccc(S(=O)(=O)N3CCCC3)cc21)Nc1cccc(Cl)c1
    -3%[7.34 µM]	-9%[7.34 µM]
> Cc1ccc(S(=O)(=O)N2CCN(C(=O)COC(=O)CCOc3cc(C)ccc3C)CC2)cc1
    -12%	-6%
> COc1ccc(-c2csc(C(O)c3ccccc3)n2)cc1 (centres undefined)
    -3%	11%
> CC1(C)Cc2cccc(OCC(=O)NCCOc3ccccc3)c2O1
    -3%	0%
> COc1ccc(CC(=O)N2CCN(C(=O)Cc3ccc(OC)c(OC)c3)CC2)cc1OC
    -13%	i
> COc1ccc(CCN2CC(C(=O)Nc3ccc4c(c3)OCO4)CC2=O)cc1OC (centres undefined)
    0%	-8%
> Cc1cccc(C(C)C)c1NC(=O)Cc1ccc(S(=O)(=O)N2CCOCC2)s1
    -21%	-19%
> Cc1c(OCC(=O)NCc2ccccn2)ccc2c(-c3ccccc3)cc(=O)oc12
    -9%	3%
> Cc1cc(N/N=C/c2cccc([N+](=O)[O-])c2)nc(-n2nc(C)cc2C)n1
    -1%	i
> Cn1ncc2c(N3CCN(c4ccc(F)cc4)CC3)ncnc21
    -16%	-25%

# Following part:
# Fields: Vaccinia Venus	VACV mCherry inh
> Cc1cccc(C)c1NC(=O)CNC(=O)CNC(=O)c1ccc2c(c1)OCO2
    -11%	-12%
> COc1cc(C(=O)NCc2cccc(Cl)c2)ccc1OCC(=O)N1CCOCC1
    -1%	-11%
> Cc1ccc(NS(=O)(=O)c2ccc3c(c2)CC(=O)N3)c(C)c1
    1%	-21%
> CCOC(=O)c1c(S(=O)(=O)N2CCCC(C(=O)Nc3ccc(C)cn3)C2)c(C)n(C)c1C (centres undefined)
    -2%	-1%
> O=C(Nc1nccs1)C1CC(=O)N(CCc2ccccc2)C1 (centres undefined)
    -14%	i
> Cc1cc(Nc2cccc(Br)c2)c2ccccc2n1
    ?	?
> CCN(C(=O)CCc1nc(-c2ccc(C)cc2)no1)c1cccc(Cl)c1
    -9%	-10%
> CCOC(=O)C1CCCN(C(=O)Cn2ncc3c4ccccc4n(C)c3c2=O)C1 (centres undefined)
    -3%	-5%
> COc1cc(/C=C/C(=O)N(C)CC(=O)Nc2ccccc2SC)cc(OC)c1OC
    -2%	-3%
> COc1ccc(-c2csc(C(O)c3ccccc3)n2)cn1 (centres undefined)
    -4%	i

# Continued.
# Fields: Vaccinia Venus	VACV mCherry inh
> CCCn1c(N)c(C(=O)CSc2nnc(Cc3ccccc3)o2)c(=O)n(C)c1=O
    ?	-22%
> CCn1ccnc1CN1CCC(CO)(CCOc2ccccc2)CC1
    2%	-6%
> CCCN1CCN(c2ncnc3sc(C(=O)Nc4cccc(Cl)c4C)c(C)c23)CC1
    -10%	-11%
> N#CCc1ccc(OC(=O)c2cccnc2)cc1
    -6%	i
> CCN(C(=O)c1ccc(S(=O)(=O)N2CCOCC2)cc1)C1CCS(=O)(=O)C1 (centres undefined)
    -8%	-12%
> N#CC1C(C#N)C2CCC1C1C2N1c1ccccc1 (centres undefined)
    -19%	-2%
> O=C(N/N=C/c1ccc2c(c1)OCO2)C1COc2ccccc2O1 (centres undefined)
    -17%	-7%
> CC(=O)OC(C)(C)C#CCN1CCCC1
    -10%	i
> CCOc1ccc(N(CC(=O)OC)S(=O)(=O)c2c(C)noc2C)cc1
    -3%	7%
> O=C(c1cnccn1)N1CCN(c2ccccc2)CC1
    -2%	-11%

# Next results follow.
# Fields: Vaccinia Venus	VACV mCherry inh
> COC1CC(C)NC(=S)N1 (centres undefined)
    -10%	i
> CC(C)Oc1cc(F)ccc1-c1cc(C(=O)NCc2cccs2)[nH]n1
    -18%	-25%
> CCc1ncc(CO)n1Cc1cccc2ccccc12
    -9%	i
> COc1ccccc1CNC(=O)c1cc2cc(S(=O)(=O)N3CCCCC3)ccc2n1C
    -13%	-17%
> COC(=O)C1=C(C)NC(=O)NC1c1ccc(N2CCC(c3ccccc3)=N2)cc1 (centres undefined)
    -8%	-14%
> O=C(Nc1ccc(S(=O)(=O)N2CCCCC2)cc1)C1CCN(C(=O)c2ccc(F)cc2)CC1
    -25%	-7%
> Cn1cc(S(=O)(=O)N2CCCCCC2)cc1C(=O)N1CCN(c2ccc(Cl)cc2)CC1
    -12%	-17%
> COc1ccc(C(=O)Nc2nc(C)c(C)s2)cc1OC
    -3%	·
> CC1(C(=O)Nc2ccc3nc[nH]c3c2)CCN1C(=O)C/C=C/c1ccccc1 (centres undefined)
    -2%	17%
> CCC(=O)c1ccc(N2CCN(S(=O)(=O)c3ccccc3)CC2)c(F)c1
    -5%	i

# Next part.
# Fields: Vaccinia Venus	VACV mCherry inh
> CCOc1ccc(C(=O)NCC(=O)OCc2cc(C(C)=O)ccc2OC)cc1
    -9%	i
> Cc1cccc(-c2nc(CS(=O)CC(=O)NCc3ccc(Cl)cc3)c(C)o2)c1 (centres undefined)
    -9%	-9%
> COc1ccc(C(N)c2csc(Nc3ccc(S(C)(=O)=O)cc3)n2)cc1 (centres undefined)
    -8%	-5%
> COc1ccc(NC(=O)C(=O)NCC2CCCN2S(=O)(=O)c2ccc(C)cc2)cc1 (centres undefined)
    -25%	?
> Cc1cccc(Oc2nc3ccccn3c(=O)c2/C=C(\C#N)C(=O)NC2CCS(=O)(=O)C2)c1C (centres undefined)
    -16%	-24%
> Cc1ccc(C(=O)OCC(=O)c2c[nH]c3ccccc23)cc1
    -22%	-24%
> COc1ccc(OC)c(NC(=O)CSc2ccc(-c3cccnc3)nn2)c1
    -11%	-25%
> O=C(OC1CCOC1=O)c1cc(-c2cccs2)nc2ccccc12 (centres undefined)
    10%	0%
> CNc1ccccc1C(C)(C)c1ccn[nH]1
    0%	-10%
> COc1ccc(CN2C3CCCC2CC(NC(=O)/C=C/c2ccccc2)C3)cc1 (centres undefined)
    -15%	-1%

# (more compounds)
# Fields: Vaccinia Venus	VACV mCherry inh
> CCc1nc2ccc(C(=O)NCCCn3ccnc3)cn2c1N(C)Cc1nccs1
    -6%	i
> CC1(C)CC(=O)C(c2c[nH]c3ccccc23)C(=O)C1
    -4%	-22%
> C=CCNC(=O)c1cccc2c1C(=O)c1ccc(N3CCCC3)cc1S2(=O)=O
    21%	i
> CCCCCCCc1c(C#N)c(N)[nH]c(=S)c1C#N
    2%	-10%
> C[C@@H]1CN([C@H](C)CO)C(=O)Cc2cc(NC(=O)Nc3ccccc3)ccc2O[C@@H]1CN(C)C(=O)Nc1ccc2c(c1)OCO2
    -17%	i
> O=C(c1ccc2ccccc2c1)C1CCCN(C(=O)c2noc3c2CCCC3)C1 (centres undefined)
    -10%	i
> C#CCSc1ncc(-c2ccccc2)cn1
    4%	-9%
> COc1ccc(C2NC(=O)C(C)S2)cc1 (centres undefined)
    -8%	-12%
> NC(N)=NCCNS(=O)(=O)c1cccc2cnccc12
    5%	-1%
> COCCCN(C(=O)CCOc1ccc(C)cc1)c1c(N)n(Cc2ccccc2)c(=O)[nH]c1=O
    -22%	-1%
